HIV Env fusion: inhibitors of HIV-1 Env-driven cell-cell fusion, primary screen, HeLa-JRFL effector, CEM21 target cells, luciferase; inhibition, % at 12.3 µM; AID 651610, 2012; 1.1% of 360,000 active;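 active = mean replicate inhibition score of at least 50 and every replicate individually at or above 50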;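 note: 0% = plate neutral controls and 100% = maraviroc near 300 nM; one replicate is shown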
UUG fidelity: modulators of yeast start codon fidelity, primary screen, whole organism, S. cerevisiae, single point, plate reader. S. cerevisiae UUG-firefly luciferase reporter, luminescence/redox ratio. activity score, % at 18.7 µM. 0.13% of 350,000 active;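 active = replicate mean at a twofold rise or more, about +100% in these data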;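 note: firefly luciferase made from a UUG start codon reports start codon fidelity; reporter light over untreated wells divided by growth signal over untreated wells; some hits fall short of that in this replicate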
MT1-MMP act inh: blockers of MT1-MMP proenzyme processing, primary screen, HT1080 RFP-PRO-GFP cells, GFP/RFP fluorescence. GFP/RFP ratio fluorescence, overnight; percent of plate control window, DMSO zero. GFP/RFP ratio change, % at 20 µM. 0.061% of 360,000 active. AID 651647, 2012;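 active = GFP/RFP ratio change of at least 30% with cell ATP level not reduced by more than half and red fluorescence within 50% of control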; note: strong numbers were not always called active
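Test system: HT1080 cells expressing an RFP-PRO-GFP fluorescent reporter construct / Compound dosing: single-point 20 µM compound, 1% DMSO / Schedule: cells overnight before dosing, compound overnight, 37 °C, 5% CO2 / Evaluation: GFP/RFP fluorescence ratio / Control set: DMSO and RFP-L50D-GFP cell wells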
MT1-MMP act inh RFP: further read-out of MT1-MMP act inh, marked with its call; RFP signal change, %; measured here: RFP expression control read;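 0 = vehicle wells; hits needed this value within 50% of zero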
* = called active by the depositor; i = inactive; / = no result given. Some of the compounds tested; count on the stated rates, not on these rows.

canonical_smiles | HIV Env fusion | MT1-MMP act inh RFP | MT1-MMP act inh | UUG fidelity
O=C(COC(=O)/C=C/c1ccc(OC(F)F)cc1)NC1CCCC1 | / | 0 | 4 | -4
CCOC(=O)Cc1csc(NC(=O)c2ccc(N3CCOCC3)cc2[N+](=O)[O-])n1 | / | -7 | 6 | -11
O=C1C=CC2=C3c4cc(O)c(O)cc4CC3(O)COC2=C1O (stereo not given) | / | 13 | 20 | -2
COc1ccccc1N(CCC#N)C(=O)COC(=O)CCC(=O)c1ccc(F)cc1 | / | 4 | 1 | 3
COc1ccc(CNC(=O)COC(=O)CC(NC(N)=O)c2ccc(Cl)cc2)cc1OC (stereo not given) | / | -3 | -1 | 1
CCCCN1CC(C)(C)[C@H](CC(=O)Nc2ccccc2)C1=O | / | -1 | 3 | -15
O=C(OCCOc1ccccc1)c1cc(S(=O)(=O)N2CCOCC2)ccc1Cl | / | -2 | 0 | -1
Cc1cc(N=O)c(C)cc1O | / | 5 | -2 | -4
CN(C)C(=O)c1cccc(-c2cccc(-c3nc(C(=O)NCc4ccccc4)cc4c3[C@@H](CCO)N(S(=O)C(C)(C)C)C4)c2)c1 (stereo not given in full) | / | -2 | -1 | -2
O=C1NC(=O)C2(Br)Nc3ccc(Br)cc3C(=O)C2N1 (stereo not given) | / | 1 | 3 | -10
CCN(CC(=O)Nc1ccc(NC(C)=O)cc1)C(=O)c1c(C)nn(Cc2ccc(C)cc2)c1Cl | / | 0 | 3 | -20
CC12CCC(=O)N1C(C(=O)NNC(=O)COc1ccccc1F)CS2 (stereo not given) | / | 4 | 1 | -6
CC(C)N(C(=O)COC(=O)c1ccc(Cl)s1)c1ccccc1 | / | -2 | -2 | -22
CCCN(CC(=O)Nc1ccccc1C)C(=O)CCCNC(=O)c1ccc(Cl)cc1 | / | -3 | 1 | -11
NC(=O)C1CC2(C1)CC(C(N)=O)C2 (stereo not given) | / | 3 | 5 | -23
COc1ccc(OC[C@@H](O)CNC(=O)c2cccc3c2C(=O)c2ccc(-c4ccc(F)cc4OCc4ccccc4)cc2S3(=O)=O)cc1 | / | -5 | 5 | -9
Cn1c(=O)c2cc(NC(=S)NCc3ccccc3F)ccc2n1Cc1cccc(C(F)(F)F)c1 | / | -22 | -4 | -18
COc1cc(CCN(C(C)=O)C2C(=O)Nc3ccccc3N=C2c2ccc3c(c2)OCO3)cc(OC)c1 (stereo not given) | / | 2 | 2 | 11
CC(OC(=O)C1CCN(c2ccc(C(F)(F)F)cn2)CC1)C(=O)Nc1cccc([N+](=O)[O-])c1 (stereo not given) | / | -4 | 0 | -4
CCN(CC)C(=O)C1=C(C)N(CCCN2CCCC2=O)C(=O)C(CC(=O)NC2CCCC2)C1 (stereo not given) | / | 5 | 2 | -18
COc1cccc(/C=C/C(=O)OCC(=O)NC2CC2)c1 | / | 2 | 1 | 9
Cc1ccc(S(=O)(=O)N2C[C@]3(O)C[C@@H]4C(=O)N(c5ccccc5)C(=O)[C@@H]4C[C@]3(OC(=O)NCc3ccco3)C2)cc1 | / | 2 | 3 | -8
COc1cccc(-c2cnc(C(O)c3ccc(C(C)(C)C)cc3)[nH]2)c1 (stereo not given) | / | -4 | 1 | -8
O=C(NC(c1ccccc1)c1cnccn1)C1CCN(Cc2ccc(Cl)c(Cl)c2)CC1 (stereo not given) | / | -3 | 2 | 16
O=C(NCCN1C(=O)S/C(=C\c2ccccc2F)C1=O)C1CC(=O)N(Cc2ccccc2)C1 (stereo not given) | / | -4 | -5 | -4

Some of the entries so far, with values under each structure:
Fields: HIV Env fusion, MT1-MMP act inh RFP, MT1-MMP act inh, UUG fidelity
- O=C(OCCOc1ccccc1)c1cc(S(=O)(=O)N2CCOCC2)ccc1Cl
 : /, -2, 0, -1
- Cc1cc(N=O)c(C)cc1O
 : /, 5, -2, -4
- CN(C)C(=O)c1cccc(-c2cccc(-c3nc(C(=O)NCc4ccccc4)cc4c3[C@@H](CCO)N(S(=O)C(C)(C)C)C4)c2)c1 (stereo not given in full)
 : /, -2, -1, -2
- O=C1NC(=O)C2(Br)Nc3ccc(Br)cc3C(=O)C2N1 (stereo not given)
 : /, 1, 3, -10
- CCN(CC(=O)Nc1ccc(NC(C)=O)cc1)C(=O)c1c(C)nn(Cc2ccc(C)cc2)c1Cl
 : /, 0, 3, -20
- CC12CCC(=O)N1C(C(=O)NNC(=O)COc1ccccc1F)CS2 (stereo not given)
 : /, 4, 1, -6
- CC(C)N(C(=O)COC(=O)c1ccc(Cl)s1)c1ccccc1
 : /, -2, -2, -22
- CCCN(CC(=O)Nc1ccccc1C)C(=O)CCCNC(=O)c1ccc(Cl)cc1
 : /, -3, 1, -11
- NC(=O)C1CC2(C1)CC(C(N)=O)C2 (stereo not given)
 : /, 3, 5, -23
- COc1ccc(OC[C@@H](O)CNC(=O)c2cccc3c2C(=O)c2ccc(-c4ccc(F)cc4OCc4ccccc4)cc2S3(=O)=O)cc1
 : /, -5, 5, -9
- Cn1c(=O)c2cc(NC(=S)NCc3ccccc3F)ccc2n1Cc1cccc(C(F)(F)F)c1
 : /, -22, -4, -18
- COc1cc(CCN(C(C)=O)C2C(=O)Nc3ccccc3N=C2c2ccc3c(c2)OCO3)cc(OC)c1 (stereo not given)
 : /, 2, 2, 11
- CC(OC(=O)C1CCN(c2ccc(C(F)(F)F)cn2)CC1)C(=O)Nc1cccc([N+](=O)[O-])c1 (stereo not given)
 : /, -4, 0, -4
- CCN(CC)C(=O)C1=C(C)N(CCCN2CCCC2=O)C(=O)C(CC(=O)NC2CCCC2)C1 (stereo not given)
 : /, 5, 2, -18
- COc1cccc(/C=C/C(=O)OCC(=O)NC2CC2)c1
 : /, 2, 1, 9
- Cc1ccc(S(=O)(=O)N2C[C@]3(O)C[C@@H]4C(=O)N(c5ccccc5)C(=O)[C@@H]4C[C@]3(OC(=O)NCc3ccco3)C2)cc1
 : /, 2, 3, -8
- COc1cccc(-c2cnc(C(O)c3ccc(C(C)(C)C)cc3)[nH]2)c1 (stereo not given)
 : /, -4, 1, -8
- O=C(NC(c1ccccc1)c1cnccn1)C1CCN(Cc2ccc(Cl)c(Cl)c2)CC1 (stereo not given)
 : /, -3, 2, 16
- O=C(NCCN1C(=O)S/C(=C\c2ccccc2F)C1=O)C1CC(=O)N(Cc2ccccc2)C1 (stereo not given)
 : /, -4, -5, -4

The listing picks up with the two entries that preceded the break.
canonical_smiles | HIV Env fusion | MT1-MMP act inh RFP | MT1-MMP act inh | UUG fidelity
O=C(NC(c1ccccc1)c1cnccn1)C1CCN(Cc2ccc(Cl)c(Cl)c2)CC1 (stereo not given) | / | -3 | 2 | 16
O=C(NCCN1C(=O)S/C(=C\c2ccccc2F)C1=O)C1CC(=O)N(Cc2ccccc2)C1 (stereo not given) | / | -4 | -5 | -4
COc1ccccc1NC(=O)c1ccc(NC(=O)c2nc3nccc(C)n3n2)cc1 | / | 1 | 2 | -22
Cc1ccccc1-c1csc(C(C)(O)c2ccc(F)c(F)c2)n1 (stereo not given) | / | -3 | 1 | -9
CC1CN(C(=O)COC(=O)c2cncc(Br)c2)CC(C)O1 (stereo not given) | / | 3 | 0 | -23
CC(C)NC(=O)c1cccc2c(-c3ccc(F)c(F)c3)coc12 | / | 0 | 5 | -12
N#Cc1ccc(C(=O)OCC(=O)NC(=O)NC2CCCCC2)cc1 | / | 4 | -1 | -9
CC(NCC(=O)Nc1ccccc1C(=O)NC1CC1)c1ccc(F)cc1F (stereo not given) | / | -1 | 5 | -2
O=C(COc1ccc(S(=O)(=O)N2CCCC2)cc1[N+](=O)[O-])N1CCCC1 | / | 6 | -1 | -14
CC[C@]12c3[nH]c4cc(CCC(=O)N(C)C)ccc4c3CCN1C(=O)[C@@H](CC(=O)NCc1cccc(C(F)(F)F)c1)C[C@@H]2C(=O)N1CCN(C(=O)C2CC2)CC1 | / | 3 | 0 | 4
CC1=C(C(=O)N(C)C)CC(CC(=O)NCC2CCCCC2)C(=O)N1Cc1ccc(C(C)(C)C)cc1 (stereo not given) | / | -1 | 9 | 11
O=C(OCc1ccccc1)N1C=CC2CC1c1c(Cl)cccc12 (stereo not given) | / | 1 | 2 | -4
CN(c1ccccc1)c1ccc(/C=C(/CCC(=O)O)c2nc3ccccc3s2)cc1[N+](=O)[O-] | -9 | 5 | 4 | /
COCC(=O)N[C@H]1C=C[C@@H](CC(=O)OC)O[C@@H]1CO | -2 | 0 | -2 | /
CC(C)(C)n1nnnc1C(c1ccccc1)N1CCN(c2c(Cl)cncc2Cl)CC1 (stereo not given) | 10 | -11 | -1 | /
COC(=O)[C@@]12C[C@@H](CC(=O)NCCc3ccccc3OC)C(=O)N(Cc3ccco3)C1=CCC(C)(C)C2 | -8 | -8 | -8 | /
CN(c1ccccc1)S(=O)(=O)c1ccc(NC(=O)CC(=O)c2ccccc2)cc1 | 17 | -2 | 8 | /
COC(=O)C[C@H]1CC[C@H](NC(=O)c2ccc(F)cc2)[C@@H](CO)O1 | -33 | 7 | -1 | /
Oc1ccc2sc(-c3ccccc3O)c(-c3ccc(OCCN4CCCCC4)cc3)c2c1 | -47 | -3 | -2 | /
O=c1[nH]c(=O)n(C(c2ccccc2)(c2ccccc2)c2ccccc2)cc1N(CCO)CCO | -39 | -2 | -9 | /
O=[N+]([O-])/C(Cl)=C(/NCCO)C(Cl)=C(Cl)Cl | -8 | 2 | -5 | /
O=C1Nc2ccccc2N(C(=O)c2c(F)cccc2F)C1c1nc2ccccc2[nH]1 (stereo not given) | -170 | -3 | 5 | /
c1ccc(SC23CCCCN(CCC2)C32OCCO2)cc1 (stereo not given) | -19 | 4 | 6 | /
Cc1ncc(COCc2ccccc2)c(CO)c1OCc1ccccc1 | 19 | 0 | 4 | /
N#Cc1ccc(-c2nc3c(Cl)cc(C(F)(F)F)cn3c2Cc2ccccc2C(F)(F)F)cc1 | -1 | 5 | 2 | /
Cc1cc2c(cc1C)-n1nnnc1C(N1CCN(CC(=O)N3CCCC3)CC1)C(=O)N2 (stereo not given) | 10 | 7 | 1 | /
Cn1c(=O)c2[nH]c(C3CCC3)nc2n(C)c1=O | -4 | 1 | -3 | /
O=C(NC1CCCC1)C1c2ccccc2OCC(=O)N1C1CC1 (stereo not given) | -35 | 9 | 4 | /
COC(=O)c1ccc2nc(-c3ccco3)c(Cc3cccc(Cl)c3)n2c1 | -13 | -4 | -1 | /
CC(C)N1CCN(c2ccc(OCC3COC(Cn4cncn4)(c4ccc(Cl)cc4Cl)O3)cc2)CC1 (stereo not given) | 17 | -3 | -2 | /
COc1ccc(CNC(=O)c2ccc(S(=O)(=O)N3CCOCC3)cc2)cc1 | 2 | -1 | 2 | /
COC(=O)[C@@]12C[C@@H](CC(=O)NCCC(C)C)C(=O)N(CCc3ccc(OC)c(OC)c3)C1=CCC(C)(C)C2 | -3 | -3 | -6 | /
O=C1c2ccccc2C(c2nnnn2-c2ccc3c(c2)OCCO3)N1CCc1ccccc1F (stereo not given) | 9 | -2 | -1 | /
O=C(NCc1ccncc1)[C@@H]1CCCN1C(=O)[C@H]1CCCN1C(=O)c1ccccc1 | 3 | 4 | 3 | /
COc1ccccc1Cc1c(C(C)(C)C)nc2cc(C)c(Br)c(C)n12 | -2 | -7 | 1 | /
CN(C)c1ccc(C=O)c(Oc2ccccc2)c1 | 32 | 2 | 5 | /
O=C1CCSc2c1ccc1ccccc21 | i | 2 | 0 | /
O=C(O)C(=Cc1ccc([N+](=O)[O-])cc1)c1cccc(Cl)c1 | 9 | 2 | 2 | /
CCOC(=O)C1C(C)C(C(C)(C)C)N(S(=O)(=O)c2ccc(C)cc2)C1c1ccccc1 (stereo not given) | 77* | -28 | -10 | /
CC(CC(=O)Nc1ccc(Cl)c(S(=O)(=O)N2CCOCC2)c1)c1ccccc1 (stereo not given) | 16 | -31 | -3 | /
COc1ccc(Nc2c(-c3ccc(F)cc3)nc3nc(C)cc(C)n23)cc1 | -99 | 0 | 4 | /
O=C(O)C(Cc1ccccc1)N1C(=O)C=CC1=O (stereo not given) | -3 | 4 | 2 | /
CCC(c1nnnn1-c1ccc2c(c1)OCCO2)N1CCN(c2cc(C)ccc2C)CC1 (stereo not given) | -15 | -21 | -7 | /
O=C1NC[C@@H](CCCCN2C[C@H](Cc3ccccc3)N(CCC3CCCCC3)C(=O)C2=O)N(Cc2ccccc2)C1=O | -54 | 1 | 1 | /
CNC(=O)C[C@@H]1C(=O)N(c2ccc(OC)cc2)CC1(C)C | 1 | 6 | 4 | /
CCOC(=O)[C@]12CCCC=C1N(Cc1ccccc1)C(=O)[C@H](CC(=O)NCc1ccccc1)C2 | -48 | 1 | 4 | /
C=C1C(=O)C2=CC1CCC(=O)C1(C)CCC(OC(C)=O)C(C)(C)C1CC2O (stereo not given) | -41 | -34 | 1 | /
COc1cccc(C(C(=O)NCc2ccccc2)N2CCN(c3ccccc3F)CC2)c1OC (stereo not given) | -8 | -4 | -2 | /
